Compound activity deposited in PubChem BioAssay by Emory University Molecular Libraries Screening Center.
Measles inh: inhibitors of measles virus growth in infected cells; infected Vero cells, GFP fluorescence, 64 h; stronger effect = lower value; z-score (concentration not given with the values); 33,000 tested, 0.1% active; AID 745;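 active = z-score under -3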;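 also: score is relative to mean and SD of the compound wells of a plate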
Starred values were filed as active, the others as inactive. The list is partial (hit frequency here may not be typical).

SMILES	Measles inh
Cc1cc2c(cc1C)NC(c1ccc(Cl)s1)C1=C(CC(C)(C)CC1=O)N2 (centres undefined)	1.28
CCn1c[n+](CC(O)COc2ccccc2)c2ccccc21 (centres undefined)	1.18
O=C(c1cc2nc(-c3cccs3)cc(C(F)(F)Cl)n2n1)N1CCCCCC1	1.81
COc1ccc(OC)c2[nH]c(=O)c(CCNC(=O)C3CCCCC3)cc12	-0.2
O=C1CC(Nc2ccc(N3CCOCC3)cc2)C(=O)N1c1ccccc1F (centres undefined)	0.97
COc1ccc2nc(-c3cccc(N)c3)[nH]c2c1	-1.24
CC1=C(C(=O)N2CCCCC2)C(c2ccc(F)cc2)C2=C(CC(C)(C)CC2=O)N1 (centres undefined)	-0.03
C=CCn1c(=N)n(CC(=O)O)c2ccccc21	0.45
COC(=O)COc1ccc(C2C(C(=O)OC)=C(C)NC3=C2C(=O)c2ccccc23)cc1OC (centres undefined)	-0.48
Cc1ccc(N2C(=O)C(Cl)=C(Nc3ccccc3O)C2=O)cc1Cl	-0.73
CCC(=O)Nc1ccc(C)cc1C	1.66
COc1ccc(NC(=O)c2ccc(-c3ccc([N+](=O)[O-])cc3)o2)cc1	0.06
CCOC(=O)c1cc2c(=O)n3ccccc3nc2n(CC2CCCO2)c1=NC(=O)c1c(OCC)ccc2ccccc12 (centres undefined)	-0.79
CCCC(=O)n1c(=O)oc2cc(Cl)ccc21	-1.43
CCC(Cc1ccccc1)NS(=O)(=O)c1ccc(F)c(C(=O)Nc2ccc(C)c(F)c2)c1 (centres undefined)	-0.12
O=C(CCc1nc(-c2ccccc2F)no1)NCc1ccco1	-1.21
O=C(CCSCc1ccc(Cl)cc1)NCc1cccnc1	0.01
COc1ccccc1C1CC(=O)C2=C(C1)NC(C)=C(C(=O)OC(C)C)C2c1cc(OC)c(O)c([N+](=O)[O-])c1 (centres undefined)	-0.22
N#Cc1c(N)nc(SCC(=O)c2ccc(Cl)cc2)c(C#N)c1-c1ccco1	1.05
COCCn1c(=S)[nH]c2cc(C(=O)N3CCN(C4CCCCC4)CC3)ccc2c1=O	0.88
CCCCS(=O)(=O)NC1=NCN(CCO)CN1	0.33
CCCn1c(SCCC(=O)O)nc2c1c(=O)[nH]c(=O)n2C	0.24
CC(=O)N1c2c(cc(Br)cc2S(=O)(=O)NCc2cccs2)CC1C (centres undefined)	-0.47
COc1ccc(Nc2ncc(C(=O)Nc3ccc4c(c3)OCCO4)c3ccccc23)cc1	1.82
COc1ccc([N+](=O)[O-])cc1NC(=O)C1c2ccccc2C(=O)N(C)C1c1ccc(OC)c(OC)c1 (centres undefined)	0.46
Further records.
SMILES	Measles inh
CCc1nc(NCC(C)C)c(C#N)c2c1COC(C)(C)C2	1.34
Cc1sc2c(c1C)c(=O)n(-c1ccc(Cl)cc1)c(=O)n2Cc1cccc([N+](=O)[O-])c1	0.76
CCOCCOC(=O)C1=C(C)NC(=O)CC1c1ccccc1Cl (centres undefined)	1
COc1cc(OC)cc(C(=O)NCCc2ccc(OC)c(OC)c2)c1	0.48
COCCn1c(SCC(=O)Nc2ccc3c(c2)OCCO3)nnc1-c1c[nH]c2ccccc12	-0.16
C=CCn1c(=S)[nH]c2sc3c(c2c1=O)CC(C(C)C)OC3 (centres undefined)	-0.74
OC1(C(F)(F)F)CC(C=Cc2cccs2)=NN1 (centres undefined)	-0.7
CCOC(=O)c1cc2c(=O)n3ccccc3nc2n(Cc2ccco2)c1=NC(=O)c1ccco1	-0.29
CCOC(=O)c1c(NC(=O)c2ccc(N3C(=O)C4C5C=CC(C5)C4C3=O)cc2)sc2c1CCCC2 (centres undefined)	0.02
Cc1cccc(OCC(=O)N2CCN(C(=O)COc3cccc(C)c3)CC2)c1	-1.01
CCCS(=O)(=O)N1CCC(C(=O)NCCCOC)CC1	-0.43
Cc1cc(C)n(C(=O)C2CCCN2S(=O)(=O)c2ccc(Cl)cc2)n1 (centres undefined)	-0.14
CCc1ccc(-n2nc3ccc(NC(=O)c4ccccc4OC)cc3n2)cc1	0.85
CCc1nc2ccccc2c(NC(=O)CN2CCN(C(=O)c3ccco3)CC2)c1C	0.57
CCc1ccc(NC(=O)c2cc(-c3cccc(Cl)c3)on2)cc1	0.18
O=[N+]([O-])c1ccc(O)c(C=Nc2ccc(Nc3ccccc3)cc2)c1	-1.45
CC(C)c1nnc(NC(=O)c2cccc(NC(=O)C(F)(F)F)c2)s1	0.01
COc1ccc(-c2c(C(F)(F)F)oc3c(CN4CCCCC4)c(O)ccc3c2=O)cc1OC	0.24
COc1ccc(C2C3=C(N=C4SCC(=O)N42)c2ccccc2CC3)cc1 (centres undefined)	-0.43
CCCOC(=O)C1=C(C)N(C)C(=O)NC1c1cc(Cl)c(O)c(OC)c1 (centres undefined)	-0.28
CCc1ccc(NC(=O)CN2C(=O)c3ccccc3Sc3ccc(C(=O)N4CCCC4)cc32)cc1	-0.44
O=C(Nc1ccccc1[N+](=O)[O-])c1cccc(S(=O)(=O)N2CCc3ccccc32)c1	-0.89
CC(C)Cn1cc(C(=O)NCCCN2CCCC2)c2c3ccccc3n(C)c2c1=O	-0.49
O=C(CCCC1=NS(=O)(=O)c2ccccc2N1)N1CCN(Cc2ccccc2)CC1	-0.47
Cc1ccc(S(=O)(=O)N(CC(=O)NC(C)c2ccccc2)Cc2ccccc2)cc1 (centres undefined)	-0.16

Of the compounds above, 6 have a nitro group on carbon.
SMILES	Measles inh
COc1ccc(NC(=O)c2ccc(-c3ccc([N+](=O)[O-])cc3)o2)cc1	0.06
COc1ccccc1C1CC(=O)C2=C(C1)NC(C)=C(C(=O)OC(C)C)C2c1cc(OC)c(O)c([N+](=O)[O-])c1 (centres undefined)	-0.22
COc1ccc([N+](=O)[O-])cc1NC(=O)C1c2ccccc2C(=O)N(C)C1c1ccc(OC)c(OC)c1 (centres undefined)	0.46
Cc1sc2c(c1C)c(=O)n(-c1ccc(Cl)cc1)c(=O)n2Cc1cccc([N+](=O)[O-])c1	0.76
O=[N+]([O-])c1ccc(O)c(C=Nc2ccc(Nc3ccccc3)cc2)c1	-1.45
O=C(Nc1ccccc1[N+](=O)[O-])c1cccc(S(=O)(=O)N2CCc3ccccc32)c1	-0.89

(more compounds)
SMILES	Measles inh
CCC(=O)Nc1ccc(S(=O)(=O)N2CCc3ccccc32)cc1	-0.09
CCOC(=O)C1CCN(S(=O)(=O)c2ccc(Br)s2)CC1	0.6
Cn1c(=O)c2c(nc(NCCCO)n2Cc2cccc(Cl)c2)n(C)c1=O	-0.49
Cc1ccc(-n2nc3c(c2NC(=O)COc2ccc(Cl)cc2)CS(=O)(=O)C3)cc1	0.08
CC(C)c1ccc(NC(=O)CN2CCN(c3ccc([N+](=O)[O-])cc3)CC2)cc1	0.28
COc1cc(C2Nc3ccc(C(=O)c4ccccc4)cc3NC3=C2C(=O)CC(C)(C)C3)cc(I)c1O (centres undefined)	0.52
CC(=O)c1cccc(NC(=O)COc2ccc(Cl)c(C)c2)c1	-0.72
COc1cccc(CN2C(=O)c3ccccc3Sc3ccc(C(=O)NCc4ccccc4)cc32)c1	0.77
O=C(COc1ccccc1)Nc1ccc(NC(=O)c2cccs2)cc1	0.28
Cc1cc(C)n(Cc2ccc(C(=O)NCc3ccco3)o2)n1	-0.18
COCCn1c(=O)[nH]c2cc(C(=O)NCCN3CCN(c4ccccc4)CC3)ccc2c1=O	-3.61*
CCOc1ccc(C(=O)Nc2ccc(-n3nncc3-c3ccccc3)cc2)cc1	1.35
Clc1ccc2nc(-c3c[nH]c4ccccc34)c(Nc3ccc4c(c3)OCCO4)n2c1	-1.87
O=C1CC(c2cccc(Br)c2)Nc2ccc3ccccc3c21 (centres undefined)	-0.44
COc1cc(-c2ccc(NC(C)=O)c(OC)c2)ccc1NC(C)=O	-0.12
O=C(NCCCN1CCOCC1)c1cc(Sc2ccccc2C(F)(F)F)nc2ccccc12	-0.44
CN(C1CCCCC1)S(=O)(=O)c1ccc2c(c1)c(=O)c(C(=O)N1CCCCC1)cn2C	0.01
O=C(Nc1cccnc1Cl)c1nn2c(C(F)(F)F)cc(-c3cc(Br)cs3)nc2c1Br	-0.82
O=C(CN1CCOCC1)OCCCc1ccccc1	-0.39
Cc1ccc(CN2C(=O)CSc3ccccc32)cc1	-0.43
COc1ccc(OCc2nc3ccccc3n2C(C)C)cc1	0.11
C=CCNC(=O)c1cc2c(=O)n3ccccc3nc2n(C(C)C)c1=N	-1.69
COc1ccc(C2C=C(c3ccc(I)cc3)Nc3nnnn32)c(OC)c1 (centres undefined)	0.02
COc1ccc(N2CCN(C(=O)c3cn(C)c(=O)c4c3c3ccccc3n4C)CC2)cc1	-1.43
O=C(O)CSc1nc2ccccc2[nH]1	0.86
Continuation:
SMILES	Measles inh
O=[N+]([O-])C12CC=C(OCCCl)C([N+](=O)[O-])(CN(Cc3ccccc3)C1)C2 (centres undefined)	0.48
CCOc1ccc(C(=O)Nc2nc(-c3ccc(CC)cc3)cs2)cc1	0.53
CC1CCCCN1S(=O)(=O)c1ccc(NC(=O)C2COc3ccccc3O2)cc1 (centres undefined)	-0.11
COc1cc(OC)cc(-n2nc(C(=O)N3CCCC(C)C3)c3ccccc3c2=O)c1 (centres undefined)	-0.78
O=C(NCc1cccnc1)C1c2ccccc2C(=O)N1Cc1ccc(F)cc1 (centres undefined)	-1.68
CC1=C(C(=O)OCC2CCCO2)C(c2coc3ccc(Cl)cc3c2=O)C2=C(CCCC2=O)N1 (centres undefined)	-0.36
COc1ccc(N)c2c1C(=O)c1ccccc1C2=O	-1.53
Cc1ccc2c(c1)NCC(C(=O)N1CCN(C)CC1)O2 (centres undefined)	-0.16
CCCC(=O)N(c1ccc2oc(C)c(C(C)=O)c2c1)S(=O)(=O)c1c(C)cc(C)cc1C	-0.67
COc1ccc(-n2nc3c(c2NC(=O)c2cccc(F)c2)CS(=O)C3)cc1 (centres undefined)	1.15
COc1ccc2oc(=O)c(C(=O)N(C)C)cc2c1	-0.5
Cc1ccc(CCNS(=O)(=O)c2ccc3c(c2)c(=O)n(C)c(=O)n3C)cc1	-0.04
Cc1cc(OCC(O)CN2CCN(c3ccc(F)cc3)CC2)cc(C)c1Cl (centres undefined)	-1.75
Cc1ccc(C2CC(c3ccc(NS(C)(=O)=O)cc3)=NN2S(=O)(=O)c2ccccc2)cc1 (centres undefined)	-0.44
Cc1ccccc1N(C)S(=O)(=O)c1ccc2[nH]cc(C(=O)N(C)Cc3ccccc3)c(=O)c2c1	-0.84
CC(C)c1ccc(NC(=O)C2C3C=CC4(O3)C2C(=O)N(Cc2ccc(F)cc2)C4C(=O)NC2CCCCC2)cc1 (centres undefined)	-0.91
Clc1cccc(Nc2nc(NCc3ccco3)c3ccccc3n2)c1	-0.74
COc1ccc(C2C=C(c3ccc(Cl)cc3)Nc3ncnn32)c(OC)c1 (centres undefined)	-0.45
COc1ccc(NC(=O)c2ccco2)c([N+](=O)[O-])c1	-0.23
Cc1cc(Oc2coc3cc(OCC(=O)OCC(C)C)ccc3c2=O)cc(C)c1Cl	1
Cc1ccccc1Nc1ncnc2c1cnn2-c1ccc(Cl)cc1	-0.41
CCC(C)n1c(=O)[nH]c2c1c(=O)n(C)c(=O)n2C (centres undefined)	-0.18
Cc1nn(-c2nc(-c3ccco3)cc(C(F)(F)F)n2)c(C)c1[N+](=O)[O-]	0.19
CCc1ccc2nc(N3CCC(C(=O)NCCCN4CCCC(C)C4)CC3)sc2c1 (centres undefined)	0.38
Cc1sc(NC(=O)c2ccccc2C(=O)O)c(C#N)c1C	0.79
Next part
SMILES	Measles inh
COc1ccc(C2C3=C(Nc4ncnn42)c2cc(Cl)ccc2OC3c2cccs2)cc1 (centres undefined)	-0.34
Cc1nnc(NC(=O)c2cccc(C(=O)O)c2)s1	0.33
O=C(CCN1C(=O)C2C3C=CC(C3)C2C1=O)N1CC(=O)N(CCc2ccccc2)C(=O)C1 (centres undefined)	-1.46
Cc1ccc(CCNC(=O)c2ccc(CSCc3ccccc3C)o2)cc1	-1.08
COC(=O)C1=NNC2(C)C(=O)N(c3ccc(C)c(C)c3)C(=O)C12 (centres undefined)	-0.5
Cc1cc2ccccc2c(=O)n1CC(=O)NCC(=O)Nc1ccc(C(F)(F)F)cc1	-0.49
O=C(CN1CCCN(S(=O)(=O)c2ccc(Br)s2)CC1)Nc1ccc(Cl)cc1	-0.05
Cc1ccc(C2=NN(C(=O)c3cccnc3)C(O)(C(F)(F)F)C2)cc1 (centres undefined)	0.83
CCCN1Cc2cccc(C(=O)NCc3ccc(OC)cc3)c2C1=O	-0.26
Cc1ccc(-c2ccc(CCC(=O)O)n2-c2ccc(C)cc2)cc1	1.58
Cc1sc2ncn(CC(=O)N3CCCC3=O)c(=O)c2c1C	0.19
CC1=C(C(=O)OCCOC(C)C)C(c2cccc(O)c2)C2=C(CCCC2=O)N1 (centres undefined)	0.47
CCOc1ccccc1C(=O)NCCc1cc2c(OC)ccc(OC)c2[nH]c1=O	-0.31
CCCOc1ccc(-c2nc3ccc(Br)cc3c(=O)o2)cc1	1.25
COc1ccc2c(=O)c(-c3ccccc3C)c(C(F)(F)F)oc2c1	-0.18
COc1ccc(NCC(=O)N2c3ccccc3Sc3ccccc32)cc1	-0.47
COc1ccccc1C1NC(=O)NC(C)=C1C(=O)OCc1ccc(C)cc1 (centres undefined)	0.71
CCOc1ccc2nc(NC(=O)C3CC(C)=CCC3C(=O)O)sc2c1 (centres undefined)	-1.17
COc1ccc(C2CC(=O)C3=C(C2)NC(C)=C(C(=O)OCC(C)C)C3c2cccc(Br)c2)cc1 (centres undefined)	0.15

Quoted at random: 2 records from the list.
SMILES	Measles inh
CCOc1ccc2nc(NC(=O)C3CC(C)=CCC3C(=O)O)sc2c1 (centres undefined)	-1.17
COC(=O)C1=NNC2(C)C(=O)N(c3ccc(C)c(C)c3)C(=O)C12 (centres undefined)	-0.5

Some of these compounds in order of their number in Measles inh, lowest first.
SMILES	Measles inh
O=C(CCN1C(=O)C2C3C=CC(C3)C2C1=O)N1CC(=O)N(CCc2ccccc2)C(=O)C1 (centres undefined)	-1.46
COc1ccccc1C1NC(=O)NC(C)=C1C(=O)OCc1ccc(C)cc1 (centres undefined)	0.71
Cc1ccc(-c2ccc(CCC(=O)O)n2-c2ccc(C)cc2)cc1	1.58
